# CtBP-E1A inh: CtBP/E1A binding inhibition; AlphaScreen GST-E1A/His-CtBP binding, 1536-well; stronger effect = lower value; control for the full effect not named in the record; activity change, % (concentration not given with the values); hit rate 0.49% among 340,000; AID 651724; in the data active means activity change below about -65%; inconclusive means about -30% to -65%; inactive means above about -30%; also: % is scaled to controls: 0 for no effect and ±100 for the full control effect
#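 Homogeneous bead-based format: GST-tagged E1A captured on glutathione donor beads, His-tagged CtBP on nickel acceptor beads; compounds precede bead addition by 2 h at 37 °C.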
# Sfp inh: blocks B. subtilis Sfp PPTase activity; Q9F4F7; Biochemical Sfp PPTase activity, qHTS; Potency, µM, inactives show max response, negative = inhibition, actives largely listed as inhibitors; hit rate 3.5% among 310,000; AID 1490; active = well fitted inhibition curve with a large enough effect; inconclusive = small, poorly fitted or top-dose-only effect, or another doubt; inactive = no such curve, though single readings can be large or run the other way;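 also: the enzyme is Sfp with the accession as filed and its product quenches rhodamine fluorescence; potency is read from the fitted curve at half-maximal effect; 0% = enzyme reaction without inhibitor and -100% = no enzyme wells; top concentration of the series not given in the record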
#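 With Hepes-Na pH 7.6 buffer containing 10 mM MgCl2, Sfp (15 nM) modified BHQ-2-YbbR (12.5 uM) using rhodamine-CoA (5 uM). Two reads 30 minutes apart at 525/598 nm yielded each well's rate.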
# Six1-Eya2 blk: inhibitors of human Six1/Eya2 interaction. AID 651725. hit rate 0.56% among 360,000. activity change, % (test concentration not listed). Q15475+O00167. AlphaScreen GST-Six1/His-Eya2 binding, biochemical; stronger effect = lower value; control for the full effect not named in the record; in the data active = activity change below about -65%; inconclusive = about -30% to -65%; inactive = above about -30%; also: % is scaled to controls: 0 for no effect and ±100 for the full control effect; compound concentration not given in the record
#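 Six1/Eya2 binding was read as AlphaScreen signal after compounds were pinned into GST-Six1 plus His-tagged Eya2 (5X stock 250/500 nM) in pH 8.0 Tris/NaCl/TCEP buffer, beads added, then incubated 1 h, 37 C, dark.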
# D2 potentiator: positive allosteric modulators of human D2 dopamine receptor | P14416 | DiscoveRx D2 beta-arrestin cells, luminescence, 90 min; 100% = 57 uM dopamine signal | potentiation, % (test concentration not listed) | hit rate 0.23% among 360,000; active = potentiation of 50% or more; inconclusive = 30% to 50%; inactive = 30% or less;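 also: compound concentration not given in the record; tested on top of an EC20 dose of dopamine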
# Target sequence (P14416 whole entry, looked up): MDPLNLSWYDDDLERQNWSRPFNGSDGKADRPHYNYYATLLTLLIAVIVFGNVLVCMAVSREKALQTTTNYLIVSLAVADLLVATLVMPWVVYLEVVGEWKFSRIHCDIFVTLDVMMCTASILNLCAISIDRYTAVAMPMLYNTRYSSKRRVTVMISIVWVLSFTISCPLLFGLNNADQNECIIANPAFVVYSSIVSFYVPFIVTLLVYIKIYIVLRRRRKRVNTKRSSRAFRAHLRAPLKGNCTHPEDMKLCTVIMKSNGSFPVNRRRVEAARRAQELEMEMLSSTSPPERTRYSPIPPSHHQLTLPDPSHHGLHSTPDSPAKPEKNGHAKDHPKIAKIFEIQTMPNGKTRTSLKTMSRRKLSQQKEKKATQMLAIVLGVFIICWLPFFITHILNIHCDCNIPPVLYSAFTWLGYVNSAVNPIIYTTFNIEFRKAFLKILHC
#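 PathHunter beta-arrestin assay in DiscoveRx D2 cells. Compounds were added with an EC20 of dopamine (50 nM final) for 90 min at 37 deg C. Luminescence was read 1 h after detection reagent, with 57 uM dopamine as the EC100 control.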
# PINK1 expr mod: PINK1 expression modulation | PINK1 immunofluorescence, high-content cytometry, 24 h | Potency, µM (highest dose often 76.6 µM), for inactives: top-dose activation (PINK1 increase), hits mostly activators | hit rate 0.2% among 410,000 | AID 624263; active = well fitted activation curve with a large enough effect; inconclusive = small, poorly fitted or top-dose-only effect; inactive = flat fitted curve, though single readings scatter; cell line not stated here;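 also: potency is read from the fitted curve at half-maximal effect; % of control where 0% means no effect; nearly all actives have a fitted effect of over 65% in size; a mitochondrial uncoupler was the plate control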
#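 Stable cell line, 250 cells/well, 12 h attachment; compounds pinned at 5 concentrations, 24 h; CCCP control. Fixed with nuclear dye, primary antibodies 12 h at 10 degrees C, secondary plus cell stain; laser-scanning cytometer read.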
# TRPV1 PAM: human TRPV1 potentiation | TRPV1-expressing cells, Fluo-8 calcium influx, capsaicin EC20 potentiation; host cell line not named in the record; control for the full effect not named in the record | potentiation, % at 8.33 µM | hit rate 0.02% among 320,000; active means potentiation above 80%; inconclusive means 30% to 80%; inactive means below 30%; also: 0% is about no effect
#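 Cells expressing TRPV1 were dye-loaded with Fluo-8 and read kinetically: 10 s baseline, 3 min after compound (agonist portion), then 2 min after EC20 capsaicin (allosteric enhancer portion). Calcium-bound dye fluorescence at 480/520 nm.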
# D2 ag: agonists of human D2 dopamine receptor (beta-arrestin); AID 624465; DiscoveRx PathHunter D2 beta-arrestin, luminescence, 90 min; 100% = 57 uM dopamine signal; P14416; hit rate 0.084% among 360,000; activation, % (test concentration not listed); in the data active = activation above about 40%; inconclusive = about 15% to 40%; inactive = below about 15%; also: compound concentration not given in the record; the text of the record calls up to 30% inactive
#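 Agonist mode: compounds alone added to overnight-plated D2 PathHunter cells for 90 min at 37 C, with 57 uM final dopamine (EC100) defining full response. Beta-arrestin recruitment detected by chemiluminescent reagent, read after 1 h at ambient temperature.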
# An asterisk follows results filed as active; ? = inconclusive; · = not tested or not shown; & = joins results of further samples; [ ] = dose if it differs, or a comment.
[1] COc1cccc(CNC(=O)CCNS(=O)(=O)c2cccs2)c1
[2] CCOC(=O)C1=C(C)N=C2SC(C)C(=O)N2C1c1ccc(OC(C)=O)c(OC)c1 (stereo not given)
[3] CCCN1CCC(=O)N(CCSc2ccc(C)cc2)CC1
[4] COc1ccc(NC(=O)CN(C)C(=O)CCc2c[nH]c3ccccc23)cc1
[5] Cc1cccc(OCC(=O)Nc2ccc(NC(=O)c3ccco3)c(C)c2)c1
[6] COc1ccc(CCCNC(=O)C2CCC(=O)N(Cc3ccc(Cl)cc3)C2)cc1 (stereo not given)
[7] O=C(Cc1ccc(Cl)cc1)NNC1CC(=O)N(c2ccc3ccccc3c2)C1=O (stereo not given)
[8] CCCCn1c(N)c(N(CCOC)C(=O)CSc2nnc(-c3ccc(F)cc3)n2N)c(=O)[nH]c1=O
assay / compound | 1 | 2 | 3 | 4 | 5 | 6 | 7 | 8
CtBP-E1A inh | 1 | 1 | 5 | 0 | -3 | -4 | -7 | -5
Sfp inh | 6% | 24% | 16%&12% | 17% | 17% | 6% | 18% | ·
Six1-Eya2 blk | 6 | 3 | 3 | -22 | 1 | 4 | 4 | 7
D2 potentiator | 5 | -3 | -12 | -11 | -8 | 18 | -6 | 0
PINK1 expr mod | -2.7% | -0.8% | 2.6% | 4.6% | 1.6% | -2.6% | 11% | -1.4%
TRPV1 PAM | ? | 5 | 27 | 16 | -8 | -5 | -1 | 5
D2 ag | 1.0 | -2.3 | -2.6 | -5.8 | -4.9 | 0.3 | 1.0 | -3.7

[9] CCOc1ccc(CC(=O)NNC(=S)NC)cc1Br
[10] COc1ccccc1Oc1nc(C)c(C(C)=O)cc1C#N
[11] CCCCOc1ccc(-c2c(C#N)c(N)[nH]c(=S)c2C#N)cc1
[12] COc1ccc2c3n(nc2c1)CCN=C3c1ccc(Cl)cc1
[13] CC(C)(C)OC(=O)N/N=C\c1ccc[nH]1
[14] CN(C)S(=O)(=O)Oc1cccc(C(=O)Nc2ccc(Cl)c(Cl)c2)c1
[15] CN(C)c1ccc(/C=N/n2c(COc3ccccc3)n[nH]c2=S)cc1
[16] Cc1nn(-c2ccccc2)c(N)c1N=O
assay / compound | 9 | 10 | 11 | 12 | 13 | 14 | 15 | 16
CtBP-E1A inh | 1 | 8 | · | 3 | 4 | 17 | -8 | ·
Sfp inh | 9% | -3% | -11% | · | -5% | 9% | -18% | 5%
Six1-Eya2 blk | 2 | 5 | -8 | 6 | 7 | -12 | 1 | 4
D2 potentiator | -11 | -3 | -23 | -55 | -6 | -29 | 2 | -16
PINK1 expr mod | 0.1% | -1.4% | 0.1% | 2.4% | 1.8% | 12% | -2.3% | 1.2%
TRPV1 PAM | -4 | -9 | -4 | ? | 24 | -33 | 3 | 6
D2 ag | -0.3 | -2.9 | -5.5 | -2.3 | -0.1 | 3.9 | 4.1 | -5.8

[17] COC(=O)c1cc(S(=O)(=O)Nc2c(C)cccc2C)cn1C
[18] CC1(C)OC(=O)C2=C(CC(c3ccccc3)OC2CCc2ccccc2)O1 (stereo not given)
[19] O=C(O)CSc1nc2ccccc2n1Cc1ccccc1
[20] CC(=O)Nc1ccc(S(=O)(=O)Nc2nc3ccccc3nc2N2CCOCC2)cc1
[21] CC(=O)N1c2ccc(S(=O)(=O)NCCC(=O)Nc3ccc(C)c(F)c3)cc2CC1C (stereo not given)
[22] C=CCNC(=O)C1CC(c2cccc(OC)c2)=NO1 (stereo not given)
[23] COc1ccc(N2CSC3=C(C#N)C(c4ccc(OC)c(OC)c4)CC(=O)N3C2)c(OC)c1 (stereo not given)
[24] COc1cc(NC(=O)CSc2c3c(nc4ccccc24)CCC3)cc(OC)c1OC
assay / compound | 17 | 18 | 19 | 20 | 21 | 22 | 23 | 24
CtBP-E1A inh | -5 | 16 | -2 | -17 | 2 | 1 | -4 | -18
Sfp inh | 1% | · | 24% | · | 16% | 10% | 3.2µM* | 11%
Six1-Eya2 blk | 7 | 33 | 2 | 2 | 4 | -2 | -12 | 1
D2 potentiator | -6 | 2 | -7 | -5 | -4 | 0 | 3 | -18
PINK1 expr mod | 1.0% | 5.0% | 0.0% | -0.7% | 0.7% | 5.3%[38.3 µM] | 0.1% | 1.5%&4.3%
TRPV1 PAM | -11 | · | 2 | · | 2 | 0 | 27 | -8
D2 ag | -5.4 | 5.0 | 2.9 | -2.7 | -0.6 | 0.0 | 0.1 | 3.6

# With a hit mark in Sfp inh, among the entries above:
No.	canonical_smiles	CtBP-E1A inh	Sfp inh	Six1-Eya2 blk	D2 potentiator	PINK1 expr mod	D2 ag
23	COc1ccc(N2CSC3=C(C#N)C(c4ccc(OC)c(OC)c4)CC(=O)N3C2)c(OC)c1 (stereo not given)	-4	3.2µM*	-12	3	0.1%	0.1

# Compound profiles, as listed above. Values in the order: CtBP-E1A inh	Sfp inh	Six1-Eya2 blk	D2 potentiator	PINK1 expr mod	TRPV1 PAM	D2 ag
# Profile of CC(=O)N1c2ccc(S(=O)(=O)NCCC(=O)Nc3ccc(C)c(F)c3)cc2CC1C (stereo not given) → 2	16%	4	-4	0.7%	2	-0.6
# Profile of COc1ccc(N2CSC3=C(C#N)C(c4ccc(OC)c(OC)c4)CC(=O)N3C2)c(OC)c1 (stereo not given) → -4	3.2µM*	-12	3	0.1%	27	0.1
# Profile of C=CCNC(=O)C1CC(c2cccc(OC)c2)=NO1 (stereo not given) → 1	10%	-2	0	5.3%[38.3 µM]	0	0.0
# Profile of CC1(C)OC(=O)C2=C(CC(c3ccccc3)OC2CCc2ccccc2)O1 (stereo not given) → 16	·	33	2	5.0%	·	5.0

# Additional results.
[25] COc1ccccc1NC(=O)C(C)NS(=O)(=O)c1ccccc1 (stereo not given)
[26] CSc1nc2c(c(=O)[nH]1)C(c1cccc(Br)c1)CC(=O)N2 (stereo not given)
[27] CCc1cccc(NC(=O)Nc2cccs2)c1
[28] COC(C[C@H](O)C[C@H](O)COCc1ccccc1)OC
[29] Cn1c(=O)n(C)c2cc(S(=O)(=O)Nc3ccccc3O)ccc21
[30] CSCCNC(=O)C1(C)CCN1C(=O)c1cc(C)n(C)n1 (stereo not given)
[31] COc1ccc(NC(=O)C/C(C)=N/NC(=O)CCc2ccccc2)c(OC)c1
[32] COc1ccc2c(c1)N(C(=O)CSc1n[nH]c(C)n1)C(C)(C)C=C2C
[33] CCC(C)(NC(=O)c1cccc(N2C(=O)CSC2c2ccccc2)c1)C(=O)Nc1ccccc1C (stereo not given)
assay / compound | 25 | 26 | 27 | 28 | 29 | 30 | 31 | 32 | 33
CtBP-E1A inh | -2 | -14 | 0 | 6 | 11 | 4 | 0 | 1 | -5
Sfp inh | -1% | 9% | 32µM* | 18% | 0% | · | 6% | 9% | 14%
Six1-Eya2 blk | 8 | -2 | -2 | 10 | -5 | 1 | -2 | 9 | 1
D2 potentiator | -4 | -5 | -38 | -2 | -4 | -4 | 4 | 11 | -9
PINK1 expr mod | 5.4% | 3.0% | -0.4% | 0.4% | 0.4% | 2.9% | 0.3% | 2.3% | -3.9%
TRPV1 PAM | -3 | -3 | -21 | 20 | 5 | · | 2 | -6 | -10
D2 ag | -2.1 | 4.2 | 1.3 | -2.5 | -4.5 | 2.8 | -0.9 | -1.3 | -1.6

# Bioassay records (PubChem BioAssay)
